Source: PubChem BioAssay (several laboratories)
BJeLR lethal: MLPCN primary cell-based screen for lethality selective to Ras in HRASV12 cells; BJeLR (HRASV12) viability, CellTiter-Glo ATP luminescence, 48 h; reference of the scale not given here; inhibition, % (test concentration not listed); hit rate 0.17% among 300,000; AID 1554, 2009;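 active means replicate mean above 50%; inconclusive means above 50% but judged a plate artefact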;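 further: 50 nL library stock added to about 25 µL; numbers are from one replicate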
Mtb hypoxia inh: PubChem AID 1159583; M. tuberculosis hypoxia-regulated fluorescent reporter, fluorescence; hit rate 0.1% among 300,000; fluorescence inhibition, % (no concentration beside the values);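 active means 35 to 45% if threefold the growth effect, above 45% if 1.5-fold the growth effect; inactive means the rest, general growth blockers included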;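 further: wells of about 50 µL received 100 nL stock; 0% = vehicle wells and 100% = reference inhibitor wells; whole bacteria with a GFP reporter of the hypoxia response; strong numbers were not always called active; many hits fall short of the cut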
PrP UTR inh: inhibition of PrP 5' UTR reporter expression; cell-based PrP 5' UTR mRNA reporter, plate reader; inhibition, % (no concentration beside the values); hit rate 0.35% among 340,000;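 active means every replicate at 50% or more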;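 further: 0 = median of the neutral control wells; tested in H4 reporter cells; numbers are from one replicate; inactives centre near -14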
Bead autofluor: flagged as autofluorescent in microsphere protease counterscreen; hit rate 3.1% among 360,000; fluorescence intensity (concentration not given with the values); compound autofluorescence counterscreen, microsphere flow cytometry; stronger effect = higher value;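 active means at least 3 SD above the mean of all compounds, about 16000 in these data; inconclusive means too few beads counted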;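 further: 100 nL of 1 mM stock went into each well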
RN4220 kill: growth inhibition of S. aureus RN4220, primary screen, OD600 | hit rate 0.33% among 330,000 | inhibition, % (concentration not given with the values) | 16 h;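 active means z-score of -3 or lower and OD600 up to 0.18 on both plates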;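 further: plate controls were untreated cells for no effect and reference antibiotic for full effect; stock transfer was 100 nL into about 80 µL; one replicate is shown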
Sa ugtP lethal: growth inhibition of ugtP-null S. aureus, primary screen, RN4220 ugtP deletion, OD600; 16 h; some inactives read as strong as hits; growth inhibition, % (concentration not given with the values); hit rate 0.54% among 330,000;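 active means z-score under -3 and OD600 up to 0.15 on both plates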;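 further: plate controls were untreated wells for no effect and antibiotic for full effect; wells of about 80 µL received 100 nL stock; the first replicate is given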
Mtb hypoxia inh growth: also measured in Mtb hypoxia inh; calls as there; growth inhibition, %; measured here: M. tuberculosis growth (absorbance);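 0% = vehicle and 100% = reference antibiotic; read after six days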
Numbers without * were called inactive; u = inconclusive; x = no result given.

cpd	smiles	BJeLR lethal	Mtb hypoxia inh	Mtb hypoxia inh growth	PrP UTR inh
1	CNC(=S)Nc1cccc(C(C)=O)c1	5	10	7	-13
2	CC(C)NC[C@@H](O)COc1ccc(CC(N)=O)cc1	9	x	x	-17
3	CCC1CCCCN1C(=O)CCS(=O)(=O)c1ccccc1 (configuration not stated)	-5	2	10	-17
4	COc1ccccc1NC(=O)COC(=O)CCn1c(C)csc1=O	1	3	-4	-34
5	CN(CC(=O)Nc1cccc(F)c1)C(=O)c1ccc(N2C(=O)c3ccccc3C2=O)cc1	x	-2	-4	0
6	CCn1c(SCC(=O)Nc2ccc(C)cc2)nnc1-c1cnccn1	3	6	4	-12
7	CCc1cc2c(=O)n(Cc3ccco3)c(SCC(=O)NCC3CCCO3)nc2s1 (configuration not stated)	-2	5	-4	-9
8	O=C(Nc1cc(S(=O)(=O)N2CCOCC2)ccc1Cl)C(=O)c1c(-c2ccccc2)cc2ccccn12	1	13	14	-16
9	Cc1ccc(-c2nc3ccccc3c(=O)n2-n2cccc2)cc1	5	11	1	-16
10	C=CCN(C(=O)c1csnn1)C(C(=O)NCc1ccccc1)c1c(F)cccc1Cl (configuration not stated)	-2	6	2	-27
11	CN(C)S(=O)(=O)c1cccc(NC(=S)NC(=O)c2ccco2)c1	x	3	1	-36
12	Oc1[nH]c2ccccc2c1N=Nc1ccccc1F	-7	11	4	-83

cpd	Bead autofluor	RN4220 kill	Sa ugtP lethal
1	6162	5.5	0
2	5158	x	x
3	5335	1.5	1
4	u	3.9	1
5	u	-7.0	-4
6	5209	2.1	4
7	3503	2.8	0
8	8723	10	-10
9	5218	-0.9	-1
10	3946	2.1	8
11	4256	4.1	3
12	2465	0.6	-18

Next section.
cpd	smiles	BJeLR lethal	Mtb hypoxia inh	Mtb hypoxia inh growth	PrP UTR inh
13	Cc1ccc2c(CN(C)Cc3cccc(Cl)c3)cc(=O)oc2c1C	-4	6	7	-26
14	CC(=O)N1CC(C)Oc2ccc(S(=O)(=O)NC(CC(=O)O)c3cc(C)ccc3C)cc21 (configuration not stated)	0	6	2	-12
15	COC(=O)c1cc2n(n1)CCN(Cc1ccc(F)cc1)C2=O	0	x	x	-15
16	CSc1ncc(CN2CCCC(C(=O)c3cccc(Cl)c3)C2)cn1 (configuration not stated)	-6	-1	0	-37
17	CCCOc1c(Cl)cc(C(=O)Nc2ccc3c(c2)OCO3)cc1OCC	-2	-18	3	5
18	CCN(CC)c1ccc(C=NNC(=O)c2ccoc2C)c(O)c1	x	0	14	x
19	CC(Oc1ccc(Br)cc1)c1nc2c3ccccc3nc(=S)n2[nH]1 (configuration not stated)	3	-8	14	-20
20	O=C(CN1CCN(C(=O)C2CCCO2)CC1)Nc1ccc(F)cc1 (configuration not stated)	-1	5	8	-21
21	O=C(CN1CCN(S(=O)(=O)/C=C/c2ccccc2)CC1)Nc1ccc(N2CCOCC2)cc1	4	2	3	-17
22	CCc1ccc(OCC(=O)N/N=C/c2cc([N+](=O)[O-])ccc2N2CCOCC2)cc1	-18	x	x	-12
23	COc1ccc(C(CCO)NC(=O)c2cccs2)cc1OC (configuration not stated)	-6	4	-3	-32
24	CC(c1ccc(F)cc1)n1c(-c2cccs2)n[nH]c1=S (configuration not stated)	-3	5	13	-19

cpd	Bead autofluor	RN4220 kill	Sa ugtP lethal
13	4041	4.7	23
14	4915	4.5	18
15	2800	-4.5	-6
16	5842	2.7	5
17	3227	3.4	1
18	x	-1.6	-3
19	3418	-5.4	1
20	4364	4.6	10
21	4600	1.6	-3
22	11669	x	x
23	3169	1.4	1
24	5776	-0.6	-1

More records
cpd	smiles	BJeLR lethal	Mtb hypoxia inh	Mtb hypoxia inh growth	PrP UTR inh
25	c1ccc(N2CCCCC2)c(Nc2nc3ccccc3n3cnnc23)c1	3	-9	9	2
26	CCC(=NN=C1SC(C)C(=O)N1Cc1ccco1)c1ccccc1 (configuration not stated)	x	-1	8	x
27	COC(=O)c1[nH]c2ccc(C)cc2c1NC(=O)Nc1ccc(OC)cc1	0	x	x	-19
28	COc1ccc(C(=O)/C(=C/N(C)C)S(=O)(=O)c2ccccc2)cc1	1	2	4	-28
29	Cc1ccc(C(C)C)c(OCC(=O)NNCC(=O)Nc2cccc(F)c2)c1	x	19	14	4
30	Cc1ccc(SCC(=O)OCC(=O)N2CCN(C(=O)c3ccco3)CC2)c(C)c1	17	16	-1	-24
31	c1ccc(COc2ccc(OCCCCN3CCCC3)cc2)cc1	0	x	x	-7
32	O=C(NCc1ccco1)c1ccc2snnc2c1	5	12	18	-28
33	C=CCOC(=O)C1=C(C)Nc2nnnn2C1c1cccs1 (configuration not stated)	-2	1	2	-49
34	CC(C)C[C@@]12C(=O)N(c3cccc(Br)c3)C(=O)N1C(c1ccc(F)cc1)C1C(=O)N(C3CCCCC3)C(=O)C12 (some centres not stated)	x	-3	10	x
35	CCCn1c2c(c(O)c(C(=O)NC)c1=O)CCCC2	9	0	4	-20
36	CCNC(=S)N/N=C(\C)c1cc2ccccc2o1	0	x	x	-20

cpd	Bead autofluor	RN4220 kill	Sa ugtP lethal
25	4401	80	54
26	x	-5.2	68
27	2335	-3.0	6
28	4429	5.4	-1
29	3757	4.6	-8
30	7555	5.8	17
31	12172	x	x
32	2475	3.1	-3
33	17729*	1.7	3
34	x	-1.9	1
35	3572	3.1	0
36	2026	x	x

Remaining list, next part.
cpd	smiles	BJeLR lethal	Mtb hypoxia inh	Mtb hypoxia inh growth	PrP UTR inh
37	CC1CN(C(C)CO)C(=O)c2cc(NC(=O)Cn3cnnn3)ccc2OC1CN(C)Cc1ccc(Oc2ccccc2)cc1 (configuration not stated)	x	11	1	x
38	COCCNC(=O)CN1CCC(NC(=O)C(C)(C)C)CC1	10	-2	0	-5
39	CCSc1nc2ccccc2n1C(=O)Oc1ccccc1	2	13	-1	-19
40	COc1ccc(-n2c(COc3ccc(C)cc3)nnc2SCC(N)=O)cc1	1	x	x	-5
41	CSc1ncccc1C(=O)Nc1cc(C)ccn1	-6	0	-7	-10
42	CC(C)S(=O)(=O)C1=NSC2=NC(=O)/C(=C\c3ccc(OC(=O)c4ccco4)cc3)C(=N)N21	4	7	-5	-4
43	CSc1ccccc1NC(=O)C1CCCO1 (configuration not stated)	-13	6	-6	-18
44	COc1ccccc1C(=O)C1CCCN(C(=O)c2cn3cc(Cl)ccc3n2)C1 (configuration not stated)	-5	x	x	-15
45	Cc1onc(-c2ccccc2)c1CNC(=O)C1COc2ccccc2O1 (configuration not stated)	-2	11	3	-9
46	CCN(CC)c1ccc(/C=N/NC(=O)CC(C)C)cc1	10	x	x	-28
47	CSc1nc(N2CCOCC2)nc2ccc(C)cc12	-4	16	10	-4
48	CCOC(=O)/C(C#N)=C/C=C1\C=Cc2ccccc2N1CC	-2	43*	12*	-27

cpd	Bead autofluor	RN4220 kill	Sa ugtP lethal
37	x	2.1	-4
38	10131	3.9	0
39	9418	4.7	7
40	3522	1.1	0
41	5086	-1.0	1
42	5872	16	6
43	22505*	-0.2	5
44	3960	x	x
45	4537	0.7	6
46	4736	x	x
47	3473	9.0	5
48	119384*	9.6	2

Part of the list above in a different format:
No.	smiles	BJeLR lethal	Mtb hypoxia inh	Mtb hypoxia inh growth	PrP UTR inh	Bead autofluor	RN4220 kill	Sa ugtP lethal
37	CC1CN(C(C)CO)C(=O)c2cc(NC(=O)Cn3cnnn3)ccc2OC1CN(C)Cc1ccc(Oc2ccccc2)cc1 (configuration not stated)	x	11	1	x	x	2.1	-4
42	CC(C)S(=O)(=O)C1=NSC2=NC(=O)/C(=C\c3ccc(OC(=O)c4ccco4)cc3)C(=N)N21	4	7	-5	-4	5872	16	6
39	CCSc1nc2ccccc2n1C(=O)Oc1ccccc1	2	13	-1	-19	9418	4.7	7

The listing continues:
cpd	smiles	BJeLR lethal	Mtb hypoxia inh	Mtb hypoxia inh growth	PrP UTR inh
49	COc1ccc(C2C=CCN(C(=O)C3CC3)C(Cc3ccccc3)C(=O)N2Cc2ccc(F)cc2)cc1 (configuration not stated)	x	4	8	x
50	Cc1ccc(C(=O)NCc2cccc(C(F)(F)F)c2)cc1S(=O)(=O)N1CCCCC1	x	4	3	-10
51	CCOC(=O)c1ccc(S(=O)(=O)N2CCN(CC(=O)NC(=O)NC3CCCCC3)CC2)cc1	-19	x	x	-12
52	O=C(Nc1cccc(C(=O)NC2CC2)c1)c1ccc(Cl)c(S(=O)(=O)N2CCOCC2)c1	x	5	2	-27
53	CCC(=O)Nc1cc2c(cc1C(=O)c1ccccc1)OCCO2	-2	x	x	-22
54	COc1ccc(C2CCCN2C(=S)Nc2cccc(Cl)c2C)cc1OC (configuration not stated)	-9	1	-1	-21
55	O=C1CN(C(=O)/C=C/c2ccc(Cl)cc2Cl)CCN1	1	-13	11	-40
56	CCOC(=O)C1=C(CN2CCc3ccccc32)NC(=O)NC1c1cccc([N+](=O)[O-])c1 (configuration not stated)	0	-4	3	0
57	NC(=S)N/N=C/c1ccc(-c2ccc([N+](=O)[O-])cc2)o1	-1	x	x	-44
58	CC(C)(C)c1ccc(C(=O)NCCN2CCCC2)cc1	-2	11	3	-22
59	O=c1ccc2cc(S(=O)(=O)N3CCOCC3)ccc2o1	-13	x	x	-28
60	Cc1ccccc1NC(=O)N1CCCC(c2nc(-c3ccc(F)cc3)no2)C1 (configuration not stated)	1	7	2	-18

cpd	Bead autofluor	RN4220 kill	Sa ugtP lethal
49	x	1.2	-31
50	u	2.2	6
51	4508	2.6	5
52	8848	2.6	-2
53	2665	2.4	2
54	2061	4.5	-1
55	3913	-4.3	-1
56	14984	-5.5	-24
57	4246	x	x
58	2224	2.4	16
59	3613	1.0	2
60	9980	-2.2	7

Compound profiles, from the list above. Order of screens: BJeLR lethal | Mtb hypoxia inh | Mtb hypoxia inh growth | PrP UTR inh | Bead autofluor | RN4220 kill | Sa ugtP lethal
`CSc1nc(N2CCOCC2)nc2ccc(C)cc12` is listed with -4 | 16 | 10 | -4 | 3473 | 9.0 | 5
`CC(=O)N1CC(C)Oc2ccc(S(=O)(=O)NC(CC(=O)O)c3cc(C)ccc3C)cc21` (configuration not stated) is listed with 0 | 6 | 2 | -12 | 4915 | 4.5 | 18
`Cc1ccccc1NC(=O)N1CCCC(c2nc(-c3ccc(F)cc3)no2)C1` (configuration not stated) is listed with 1 | 7 | 2 | -18 | 9980 | -2.2 | 7
`COc1ccc(C(CCO)NC(=O)c2cccs2)cc1OC` (configuration not stated) is listed with -6 | 4 | -3 | -32 | 3169 | 1.4 | 1
`CC(c1ccc(F)cc1)n1c(-c2cccs2)n[nH]c1=S` (configuration not stated) is listed with -3 | 5 | 13 | -19 | 5776 | -0.6 | -1

Continuation.
cpd	smiles	BJeLR lethal	Mtb hypoxia inh	Mtb hypoxia inh growth	PrP UTR inh
61	COc1ccc(NS(=O)(=O)c2csc(C(=O)Nc3ccccc3)c2)cc1	10	-2	0	-5
62	CCCc1nn(C)c2c1C(c1cccnc1)C(C#N)=C(N)O2 (configuration not stated)	2	9	20	5
63	O=C(O)c1ccc(S(=O)(=O)N2CCC(c3nc(-c4ccccc4Cl)no3)CC2)cc1	-3	5	-1	-12
64	COc1ccc(N(CC(=O)N2CCCCCC2)S(=O)(=O)c2ccccc2)cc1	-10	-20	-6	-4
65	CC(=O)Nc1ccc(NC(=O)COc2ccc(Br)cc2C)cc1	4	-2	-2	-21
66	CSc1ccc(CN2CCN(C(=O)c3ccncc3)CC2)cc1	7	9	-1	-21
67	COc1ccccc1NC(=O)Nc1nnc(-c2ccco2)s1	0	-4	1	x
68	CC(=O)Nc1ccc(S(=O)(=O)Oc2ccc(C=NNC(=O)c3ccc(Cl)cc3)cc2)cc1	x	6	8	x

cpd	Bead autofluor	RN4220 kill	Sa ugtP lethal
61	4759	0.3	-7
62	23902*	4.1	-2
63	23179*	2.4	5
64	5240	1.0	0
65	2014	-2.0	-14
66	3489	-1.7	18
67	x	0.6	-8
68	x	-1.5	7
